Assay outcomes from PubChem BioAssay.
miR-21 FLuc – qHTS Assay for Modulators of miRNAs and/orActivators of miR-21; HeLa miR-21 FLuc reporter, luciferase, 48 h; Potency, µM (top dose mostly 38.3 µM), for inactives: at the top dose reporter change, positive = more light; 340,000 tested, under 10 active; AID 2288, 2010; active = well fitted rising curve with a large enough effect; inconclusive = small, poorly fitted or top-dose-only effect; inactive = no such curve, though single readings can be large or run the other way;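 further: % of control where 0% means no effect; miR-21 action dims this reporter so a rising signal means less miR-21 action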
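HeLa miR-21-FLuc reporter line, endogenous miR-21; 2000 cells/well in DMEM/10% FBS; compound titration up to ~40uM final, 48 h, 37 degree Celsius; luciferase detection reagent, 15 min lysis, CCD luminescence.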
Rango dissoc inh – qHTS Assay for Inhibitors of RanGTP induced Rango (Ran-regulated importin-beta cargo) - Importin beta complex dissociation | Snurportin-1 (Homo sapiens) + GTP-binding nuclear protein Ran (Homo sapiens) + Importin … | Potency, µM (doses to about 46.1 µM), without a hit: top-dose activity change, negative = inhibition | Biochemical FRET Rango-importin beta, RanGTP-induced dissociation | hit rate 0.071% among 340,000; active means falling FRET ratio curve, often poorly fitted, with flat reads before Ran was added; inconclusive means other falling curves, or compound fluorescence or quenching; inactive means flat or rising ratio curve;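 further: potency means the concentration at half of the fitted maximal effect; % of control where 0% means no effect; nearly all actives have a fitted effect of over 45% in size; -100% = wells without RanGTP and RCC1; the record marks most hits as doubtful in a second field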
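FRET read at 45 min, room temperature: inhibitors block the CFP/YFP signal rise when RanGTP (0.6 uM Ran, 2 mM GTP, 0.2 uM RCC1) frees Rango (0.1 uM) from importin beta (0.25 uM). Pre-read after 5 min compound exposure flags interference.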
GLA inh pH 4.5 – qHTS Assay for Inhibitors of Human alpha-Galactosidase at pH 4.5; 230,000 tested, under 10 active; activity change, negative = inhibition, % at 105 µM; Alpha-galactosidase A (Homo sapiens), P06280; purified enzyme, 4-MU-alpha-Gal fluorescence, pH 4.5; inconclusive = small, poorly fitted or top-dose-only inhibition, or a rising curve; inactive = flat fitted curve, though single readings scatter; no compound was filed as active;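 further: 0% = full activity with enzyme and -100% = basal without enzyme; dose as in the result columns while the protocol names 77 µM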
Target sequence (P06280 whole entry, looked up): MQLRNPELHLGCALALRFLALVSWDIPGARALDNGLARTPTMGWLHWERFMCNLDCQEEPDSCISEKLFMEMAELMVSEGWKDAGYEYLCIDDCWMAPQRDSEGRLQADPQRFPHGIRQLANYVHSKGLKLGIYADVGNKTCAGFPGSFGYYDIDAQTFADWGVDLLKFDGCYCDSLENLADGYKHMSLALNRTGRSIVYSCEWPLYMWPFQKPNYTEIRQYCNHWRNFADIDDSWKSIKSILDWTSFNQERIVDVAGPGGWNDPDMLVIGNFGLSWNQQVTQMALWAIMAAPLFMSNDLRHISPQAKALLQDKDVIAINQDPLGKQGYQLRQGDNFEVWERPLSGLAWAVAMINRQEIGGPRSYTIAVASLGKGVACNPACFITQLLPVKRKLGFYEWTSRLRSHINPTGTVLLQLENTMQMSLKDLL
Rango complex inh – qHTS Assay for Inhibitors of Rango (Ran-regulated importin-beta cargo) - Importin beta complex formation; Importin subunit beta-1 (Homo sapiens), Q14974; Rango CFP/YFP FRET sensor + importin beta, 45 min; Potency, µM (top dose mostly 92.2 µM), for the others: top-dose inhibition of complex formation; hit rate 0.031% among 340,000; active = rising FRET ratio curve, often small or poorly fitted; inconclusive = mostly compound fluorescence or quenching in the first reads; inactive = flat curves in all reads;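 further: potency means the concentration at half of the fitted maximal effect; 0% = DMSO wells and 100% = buffer wells lacking importin beta; nearly all actives have a fitted effect of over 15% in size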
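Inhibition scored from the CFP 486 nm/YFP 530 nm FRET ratio 45 min after adding 0.125 microM importin beta to 50 nM Rango biosensor preincubated 5 min with compound (room temperature, PBS with DTT, Tween-20, BSA). No-importin wells as positive control.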
Active calls of the source: *; ? = inconclusive; . = no result given.

Order of results – miR-21 FLuc, Rango dissoc inh, GLA inh pH 4.5, Rango complex inh
#1 NC(=O)c1ccccc1NS(=O)(=O)Cc1ccccc1
→ -2.6%, 0.0%, 7.7, -0.5%
#2 CCCc1nc2ccccc2c(C(=O)O)c1CC
→ 0.1%, 18.6%, -10.3, 1.6%
#3 CS(=O)(=O)Nc1ccccc1C(=O)N1CCOCC1
→ -3.0%, 7.0%, -2.6, -4.9%
#4 O=C(c1ccc(-n2cnnn2)cc1)N(C1CCCCC1)C1CCCCC1
→ 2.4%, 3.4%, -3.8, 3.7%
#5 Cc1c(S(=O)(=O)NCCc2ccccc2)c(=O)n(C)c(=O)n1C
→ 0.0%, -3.0%, 7.0, ?
#6 Cn1cccc1CC(=O)NNC(=S)Nc1ccc(F)cc1
→ -9.1%, -12.5%, 12.1, -0.5%
#7 COc1ccc(Nc2ncc(C(=O)N3CCC(C(N)=O)CC3)c3ccccc23)cc1
→ -1.9%, 10.2%, -5.9, 2.1%
#8 CC(C)C[C@@H](CN=[N+]=[N-])N1CCN(Cc2ccccc2)CCC1=O
→ 2.4%, 4.5%, ., -3.3%
#9 COc1ccc(C(=O)O/N=C(\C)c2nccs2)cc1
→ 0.7%, -6.8%, 5.6, 0.2%
#10 CCOC(=O)c1sc(=NC(=O)c2ccc(S(=O)(=O)N(C)c3ccccc3)cc2)n(C)c1C
→ -0.6%, -9.4%, 0.5, -4.4%
#11 CCOC(=O)c1cc(-c2ccccc2)sc1NC(=O)C(C)N1C(=O)c2ccccc2C1=O (centres undefined)
→ -12.8%, -0.5%, -0.4, -1.8%
#12 COc1ccccc1CNc1ncnc2sccc12
→ 29.6%, 20.6%, ., 0.6%
#13 CN(CC(=O)Nc1cc(S(=O)(=O)N2CCCC2)ccc1Cl)Cc1nc2ccccc2c(=O)[nH]1
→ ., -13.0%, ., -0.9%
#14 COc1cc(/C=N/n2c(-c3cc(C)[nH]n3)n[nH]c2=S)ccc1O
→ -0.3%, 5.5%, -6.4, 2.6%
#15 CCn1c(CCC(=O)O)nc2cc(S(=O)(=O)N3CCOCC3)ccc21
→ ., 6.2%, ., 0.6%

(continued)
Order of results – miR-21 FLuc, Rango dissoc inh, GLA inh pH 4.5, Rango complex inh
#16 Cc1cc(C)c(S(=O)(=O)NCc2cn3c(C)csc3n2)c(C)c1
→ -2.6%, ?, -2.4, 0.3%
#17 c1ccc(CCNc2ccccn2)nc1
→ ., -4.1%, ., ?
#18 COc1ccccc1NC(=O)CN1CCN(CC(=O)Nc2ccc(C)c(F)c2)CC1
→ -1.0%, 24.3%, ., -0.5%
#19 Cc1ccccc1OCCn1c(=S)[nH]c2c(N)ncnc21
→ -15.0%, 0.9%, ., 1.3%
#20 CCN1C(=O)/C(=C/c2c(C)nn(C)c2C)SC1=S
→ 1.0%, -4.3%, -3.4, ?
#21 CSc1ncccc1C(=O)OCC(=O)NCc1ccccc1
→ ., 1.5%, ., 0.0%
#22 O=C(c1cc(COc2ccc(F)cc2Cl)on1)N1CC[C@@H]2CCCC[C@H]2C1
→ -4.5%, 13.7%, ., -1.4%
#23 Cc1ccc(OCCN2C(=O)CSC2=O)cc1
→ -4.7%, -18.8%, -2.2, 1.5%
#24 CN(C1CCCCC1)S(=O)(=O)c1cc2c(cc1Cl)NC(=O)CO2
→ 5.8%, -18.2%, ., -5.3%
#25 Cc1nc(N2CCN(Cc3ccccc3)CC2)nc2c1C(=O)CCC2
→ 5.3%, -14.5%, -0.8, 3.1%
#26 COc1cccc(NC(=O)CN(C)C(=O)c2cc(-c3ccccc3)nc3ccccc23)c1
→ ., 8.9%, ., 0.3%
#27 Cc1ccc(NC(=O)COC(=O)CCC2CCCC2)cc1S(=O)(=O)N1CCOCC1
→ ., 5.8%, ., -0.9%
#28 O=C1OCCN1C(=O)[C@H]1[C@H](c2ccccc2)C(c2ccccc2)=NN1c1ccc(Br)cc1
→ ., -27.1%, 19.5, ?
#29 CCc1nnc(NC(=O)CSc2nc3cc(OC)ccc3cc2C)s1
→ -0.3%, 4.4%, -6.5, -1.2%
#30 CCOC(=O)CNC(=O)CSc1nnc(NC(=O)c2ccc(C)cc2)s1
→ 9.4%, 0.8%, 5.7, -0.4%

Remaining list, next part
Order of results – miR-21 FLuc, Rango dissoc inh, GLA inh pH 4.5, Rango complex inh
#31 O=C(N/N=C/c1ccccn1)c1ccc2nc[nH]c2c1
→ 4.1%, 10.2%, -4.5, -0.5%
#32 CC(C)CCN1CCN(Cc2cnc(N3CCCC3)s2)CC1CCO (centres undefined)
→ -7.2%, -10.2%, 1.9, -0.8%
#33 CC(=O)c1cn(C)c(=O)[nH]c1=O
→ 1.7%, -9.3%, 7.7, -0.3%
#34 C=CCOc1ccc(C(=O)N(Cc2ccc(N(C)C)cc2)C2CCS(=O)(=O)C2)cc1 (centres undefined)
→ -5.7%, 8.7%, -6.0, 6.7%
#35 CCOc1ccc2nc(NS(=O)(=O)c3cccs3)sc2c1
→ -14.1%, -17.9%, ., 6.2%
#36 O=c1[nH]cncc1OCc1ccccc1
→ ., 32.8%, ., ?
#37 CC(C)(C)c1cc[n+](-c2[nH]c(=O)sc2/C=N/NC(=O)c2ccccc2[O-])cc1
→ 1.7%, -6.1%, ., ?
#38 CCN(CC)S(=O)(=O)c1ccc(C(=O)Nc2nnc(NC(=S)Nc3ccccc3)s2)cc1
→ -11.7%, 21.1%, -2.7, 1.3%
#39 c1ccc(-c2cc3ccccc3cn2)cc1
→ ., 12.9%, ., -4.2%
#40 Cc1cccc(C(=O)NCC(=O)N2CCCCCCC2)c1
→ ., -12.7%, ., -0.8%
#41 CC(C)Oc1cccc(C(=O)C2CCCN(C(=O)c3ccc4c(c3)OCO4)C2)c1 (centres undefined)
→ -2.6%, -10.3%, ., -0.3%
#42 Clc1cccc(CN2CCN(c3nc4nonc4nc3NC3CC3)CC2)c1
→ 1.1%, -15.1%, -10.2, 5.5%
#43 COC(=O)C(NC(=O)c1ccco1)(Nc1cc(C)ccn1)C(F)(F)F (centres undefined)
→ -4.3%, 9.3%, -1.8, 0.0%
#44 O=C(O)c1ccccc1CSc1nnc2c(n1)[nH]c1ccccc12
→ 2.0%, 4.0%, 1.4, 6.6%
#45 Cc1ccc(NS(=O)(=O)c2ccc(NC(=O)CSc3ccc(Cl)cc3)cc2)c(C)c1
→ 0.3%, 2.3%, -0.1, 2.2%

(more compounds)
Order of results – miR-21 FLuc, Rango dissoc inh, GLA inh pH 4.5, Rango complex inh
#46 O=c1c2ccccc2ncn1CCCCOc1ccc(Br)cc1
→ 0.7%, -8.6%, 3.0, -3.8%
#47 C=CC1=CCN(S(=O)C(C)(C)C)[C@@H]1CCO (some centres undefined)
→ ., -2.4%, ., -0.7%
#48 Cc1ccc(OCCNC(=O)CCc2ccccc2)cc1C
→ ., -23.5%, ., 1.7%
#49 Cc1ccc(S(=O)(=O)NC(C)(C)C)cc1C(=O)OC(C)C(=O)NC1CC1 (centres undefined)
→ ., 4.6%, ., -2.1%
#50 O=C(NCc1ccco1)c1ccccc1NS(=O)(=O)c1ccc(Br)s1
→ 9.3%, -4.6%, -2.0, -0.5%
#51 COc1ccc(CCN2C(=O)NC(NC(=O)C(C)(C)C)(C(F)(F)F)C2=O)cc1OC (centres undefined)
→ -4.0%, -0.3%, 1.5, -4.4%
#52 CCN1CCN(C(=O)Cn2c(=O)sc3ccccc32)CC1
→ -8.5%, 8.0%, 3.5, -0.7%
#53 Nc1nc(-c2ccccc2Br)cs1
→ -28.1%, 23.6%, 1.7, 1.8%
#54 COc1ccc(Nc2nc(C)nc3sc4c(c23)CCC4)cc1O
→ 17.0%, -15.2%, -1.2, 2.8%
#55 O=S(=O)(N/N=C/c1ccc2c(c1)OCO2)c1ccc(Br)cc1
→ 0.4%, 13.6%, ., -0.6%
#56 Cc1cc(OCC(=O)Nc2ncn[nH]2)ccc1Cl
→ -4.7%, 15.1%, ., 5.0%
#57 CSc1nccc(NC(=O)c2ccc(C(C)(C)C)cc2)n1
→ 1.3%, -15.8%, ., 3.0%
#58 COc1cccc(C(=O)Nc2cccc(-c3ccc(N4CCOCC4)nn3)c2)c1
→ ., -12.2%, ., -3.7%
#59 CCc1nnc(NC(=O)c2ccc(-c3ccc(C(C)=O)cc3)o2)s1
→ ., -11.7%, ., 1.1%
#60 COc1ccc(N=Nc2c(N)nn(C)c2N)cc1
→ ., 17.4%, ., 4.9%

(more compounds)
Order of results – miR-21 FLuc, Rango dissoc inh, GLA inh pH 4.5, Rango complex inh
#61 COc1ccccc1CNC(=O)c1cn(C)c2ccc(S(=O)(=O)N3CCCC3)cc2c1=O
→ -4.2%, -1.6%, -3.4, -2.9%
#62 Cc1sc2ncn(CC(=O)NCC(=O)N3CCN(c4ccccc4F)CC3)c(=O)c2c1C
→ -0.9%, 4.2%, ., ?
#63 COC(=O)C1=C(C(=O)OC)C2(OC1c1ccccc1C)C(=O)c1ccccc1C2=O (centres undefined)
→ 0.5%, -20.0%, -1.0, -3.3%
#64 CC(C)CN(C(=O)COC(=O)Cc1ccc(Cl)cc1)c1c(N)n(Cc2ccccc2)c(=O)[nH]c1=O
→ ., -0.7%, ., -1.3%
#65 C/C(=C\C(=O)C(F)(F)F)Nc1ccc(C)cc1
→ -9.9%, 0.8%, -0.8, 5.7%
#66 CC(=O)c1cccc(NC(=O)COc2ccc3oc(=O)cc(C)c3c2)c1
→ 0.6%, 1.0%, ., -1.3%
#67 COCCNC(=O)c1cccc(OC2CCN(Cc3cccc(SC)c3)CC2)c1
→ 4.4%, 6.0%, ., ?
#68 Cc1[nH]nc2c1C(=O)CCC2
→ -8.4%, 0.7%, -8.9, -0.9%
#69 CC(=O)c1cccc(NC(=O)c2ccoc2C)c1
→ -2.5%, -20.3%, 12.6, -4.7%
#70 COc1ccc(C2C3C(=O)N(N(C)c4ncc(C(F)(F)F)cc4Cl)C(=O)C3ON2C)cc1 (centres undefined)
→ 1.0%, ?, -2.6, 3.1%
#71 Cc1ccc(NC(=S)NN(C)c2cc(C)nc(C)n2)cc1
→ 2.2%, 12.8%, -0.6, -0.3%
#72 COc1ccc(C(=O)NCCc2nnc3ccc(SCC(=O)NCc4ccccc4)nn23)cc1
→ -25.0%, -4.9%, ., 3.1%
#73 COCCN(C(=S)Nc1cccc(OC)c1)C1CCN(C(C)=O)CC1
→ -14.8%, -5.2%, 1.8, 0.9%
#74 CC(=O)Oc1cccc(N2C(=O)c3ccccc3C2=O)c1
→ -3.9%, 40.3%, -2.0, -1.0%
#75 Cc1nn(C)c(C)c1NC(=O)COc1ccc(Cl)cc1Br
→ ., -15.0%, ., 0.7%
#76 CC1CN(C(=S)Nc2ccccc2C(F)(F)F)CC(C)O1 (centres undefined)
→ 14.8%, 8.3%, ., 0.3%
#77 Cc1ccc(C2=[N+]([O-])C3(CCCCC/C3=N\O)N(O)C2(C)C)o1 (centres undefined)
→ -3.2%, -6.6%, -8.9, -0.7%

This is a subset; rates above refer to the full screens.
